Source: PubChem
PrP 5UTR inh – inhibition of PrP 5' UTR reporter expression. cell-based PrP 5' UTR mRNA reporter, plate reader. inhibition, % (concentration not given with the values). 340,000 compounds, 0.35% hits. AID 488862, 2010;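 active means every replicate at 50% or more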;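 further: 0 = median of the neutral control wells; tested in H4 reporter cells; numbers are from one replicate; inactives centre near -14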
ugtP null kill – growth inhibition of ugtP-null S. aureus, primary screen, RN4220 ugtP deletion, OD600; 330,000 compounds, 0.54% hits; 16 h; some inactives read as strong as hits; growth inhibition, % (no concentration beside the values); AID 1259309, 2017;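 active means z-score under -3 and OD600 up to 0.15 on both plates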;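 further: plate controls were untreated wells for no effect and antibiotic for full effect; wells of about 80 µL received 100 nL stock; the first replicate is given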
Mtb hypoxia inh – PubChem AID 1159583; 300,000 compounds, 0.1% hits; M. tuberculosis hypoxia-regulated fluorescent reporter, fluorescence; fluorescence inhibition, % (concentration not given with the values);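 active means 35 to 45% if threefold the growth effect, above 45% if 1.5-fold the growth effect; inactive means the rest, general growth blockers included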;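 further: wells of about 50 µL received 100 nL stock; 0% = vehicle wells and 100% = reference inhibitor wells; whole bacteria with a GFP reporter of the hypoxia response; strong numbers were not always called active; many hits fall short of the cut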
RN4220 kill – growth inhibition of S. aureus RN4220, primary screen, OD600. 330,000 compounds, 0.33% hits. inhibition, % (test concentration not listed). 16 h;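 active means z-score of -3 or lower and OD600 up to 0.18 on both plates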;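 further: plate controls were untreated cells for no effect and reference antibiotic for full effect; stock transfer was 100 nL into about 80 µL; one replicate is shown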
BJeLR viability – MLPCN primary cell-based screen for lethality selective to Ras in HRASV12 cells; BJeLR (HRASV12) viability, CellTiter-Glo ATP luminescence, 48 h; reference of the scale not given here; inhibition, % (concentration not given with the values); 300,000 compounds, 0.17% hits; AID 1554, 2009;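 active means replicate mean above 50%; inconclusive means above 50% but judged a plate artefact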;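 further: 50 nL library stock added to about 25 µL; numbers are from one replicate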
Autofluor counter – flagged as autofluorescent in microsphere protease counterscreen | fluorescence intensity (concentration not given with the values) | compound autofluorescence counterscreen, microsphere flow cytometry; active compounds read high | AID 624483 | 360,000 compounds, 3.1% hits;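 active means at least 3 SD above the mean of all compounds, about 16000 in these data; inconclusive means too few beads counted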;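 further: 100 nL of 1 mM stock went into each well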
Mtb hypoxia inh growth – second read-out of Mtb hypoxia inh, no call of its own (marks repeat the call); growth inhibition, %; measured here: M. tuberculosis growth (absorbance);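 0% = vehicle and 100% = reference antibiotic; read after six days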
* hit, by the source's call; u = inconclusive; x = not tested or not shown; & = joins results of further samples.

SMILES | PrP 5UTR inh | ugtP null kill | Mtb hypoxia inh | Mtb hypoxia inh growth | RN4220 kill | BJeLR viability | Autofluor counter
COc1cccc(C(=O)NC(C)CCc2ccccc2)c1 (centres undefined) | -16 | 7 | -1 | 2 | 5.3 | -11 | 3944
CCCCn1c(N)c(N(CC(C)C)C(=O)CN2C(=O)NC3(CC(C)CC(C)(C)C3)C2=O)c(=O)[nH]c1=O (centres undefined) | -20 | 4 | -5 | 0 | -2.3 | -7 | 5141
CCC(C)(C)NC(=O)C(c1ccco1)N(C(=O)CNC(=O)c1cccs1)c1cccnc1 (centres undefined) | 5 | -1 | -8 | 6 | 0.5 | -11 | 4229
COc1ccc(N(Cc2ccccc2)C(=O)c2ccccc2[N+](=O)[O-])cc1 | -1 | 2 | 2 | -3 | 6.2 | 6 | 11405
c1cncc(-c2nc3ccccn3c2Nc2ccc3c(c2)OCCO3)c1 | -11 | -11 | 5 | 12 | -12 | 4 | 3925
COC(=O)C1=CN(c2ccc(F)cc2)C=C(C(=O)OC)C1c1ccc([N+](=O)[O-])cc1 | -9 | -3 | 2 | -10 | -1.4 | 3 | 6168
COc1ccc(N2CCN(CCCNS(=O)(=O)c3ccc4c(c3)oc(=O)n4C)CC2)cc1 | -20 | 2 | 2 | 1 | -6.9 | 2 | 5040
CN1C(=O)c2ccc(C(=O)NCc3ccco3)cc2C1=O | -25 | -2 | 10 | -3 | 3.9 | 5 | 6798
Cc1c(C)c2cc(Cl)c(OCC(=O)NCCCn3ccnc3)cc2oc1=O | -11 | -2 | 4 | 0 | -0.2 | 1 | 5464
O=S(=O)(NCc1c(Cl)cccc1Oc1ccccc1)c1ccc(F)cc1 | -21 | -12 | 7 | -1 | 10 | -6 | 5810
CCOc1ccc(C(N)=O)cc1OC | -9 | 0 | x | x | 2.1 | 2 | 4932
Nc1nc(CN2CCN(c3ccccn3)CC2)nc(Nc2ccc(F)cc2)n1 | -22 | -10 | 6 | 9 | 2.7 | 15 | 16591*
CN(c1nc2ccccc2[nH]c1=O)C1CCCCC1 | -15 | -11 | -3 | 4 | 5.8 | -9 | 7023
CCC1OC(=O)C(C)C(OC2C[C@@](C)(OC)C(O)C(C)O2)C(C)C(OC2OC(C)CC(N(C)C)C2O)[C@](C)(OC)CC(C)C(=O)C(C)C(O)[C@]1(C)O (some centres undefined) | x | 100* | x | x | 101* | x | x
Cc1cc(C)c(C)c(S(=O)(=O)Nc2ccc(C(N)=O)cc2)c1C | -24 | 4 | -2 | 3 | 7.0 | 12 | 2380
CC(=O)c1ccc(NC(=O)c2ccc(-n3cnnn3)cc2)cc1 | -7 | 0 | 3 | 3 | 0.0 | x | u
COc1ccc(C=NNC(=O)CCc2ccccc2)cc1O | x | 0 | 3 | 8 | -1.2 | x | x
COCCNC(=O)Cn1cnc2sc(C)c(S(=O)(=O)N3CCN(c4ccccc4OC)CC3)c2c1=O | -14 | 2 | 1 | -3 | 3.6 | -2 | 6225
CCN(CC)S(=O)(=O)c1ccc(N2CCOCC2)c(NC(=O)c2c3c(nc4ccccc24)CCC3)c1 | -21 | x | x | x | x | -17 | 7626
O=C(NCc1ccccc1F)C1CCCN(C(=O)Nc2ccccc2)C1 (centres undefined) | 13 | 3 | -3 | 4 | 0.5 | 3 | 3948
CCN(CC)C(=O)c1cccc(NC(=O)c2ccccc2OCc2c(C)noc2C)c1 | -12 | 1 | 1 | 7 | 0.8 | x | 5856
O=C(CCc1nc2sc3c(c2c(=O)[nH]1)CCCC3)Nc1cccc(Cl)c1 | -2 | -7 | -6 | -3 | 3.1 | -1 | 5757
CCc1ccc(S(=O)(=O)N2CCCC(N3CCN(c4ccc(OC)cc4)CC3)C2)cc1 (centres undefined) | -3 | 1 | 10 | 18 | 1.0 | -3 | 6190
O=C(CCc1nc(-c2ccccc2F)no1)NC1CCN(Cc2ccccc2)CC1 | -11 | 5 | x | x | -1.2 | 6 | 5672
OC(CCN1CCOCC1)c1ccccc1 (centres undefined) | -6 | x | x | x | x | 6 | 4028
CC(C)CN(Cc1c(O)ccc2c(=O)c(-c3ccccc3)coc12)CC(C)C | -5 | -2 | 0 | 5 | 0.7 | -8 | 3888
O=C(COc1ccc(F)cc1)Nc1nnc(S(=O)(=O)N2CCCC2)s1 | -49 | -14 | -6 | 4 | 2.2 | 5 | 4976
CN(C)S(=O)(=O)N(CC(=O)Nc1ccc(S(=O)(=O)N2CCCC2)cc1)c1ccccc1 | -6 | 6 | 1 | 6 | 2.4 | 8 | 5771
O=C(O)C1C2C=CC(C2)C1C(=O)NCc1cccs1 (centres undefined) | -17 | 1 | 7 | 3 | 5.9 | 2 | 4323
Cc1ccc(Nc2nnc(SC/C(O)=C(\C#N)c3nc4ccccc4[nH]3)s2)c(C)c1 | -12 | -14 | -7 | 7 | 5.4 | 4 | 2340

Of the compounds above, these have a Cl atom:
SMILES | PrP 5UTR inh | ugtP null kill | Mtb hypoxia inh | Mtb hypoxia inh growth | RN4220 kill | BJeLR viability | Autofluor counter
Cc1c(C)c2cc(Cl)c(OCC(=O)NCCCn3ccnc3)cc2oc1=O | -11 | -2 | 4 | 0 | -0.2 | 1 | 5464
O=S(=O)(NCc1c(Cl)cccc1Oc1ccccc1)c1ccc(F)cc1 | -21 | -12 | 7 | -1 | 10 | -6 | 5810
O=C(CCc1nc2sc3c(c2c(=O)[nH]1)CCCC3)Nc1cccc(Cl)c1 | -2 | -7 | -6 | -3 | 3.1 | -1 | 5757

(more compounds)
SMILES | PrP 5UTR inh | ugtP null kill | Mtb hypoxia inh | Mtb hypoxia inh growth | RN4220 kill | BJeLR viability | Autofluor counter
COc1cc2c(cc1NC(=O)CSc1cccc[n+]1[O-])oc1ccccc12 | -9 | -6 | 8 | 7 | 4.2 | 1 | 2200
O=C(NCCCN1CCCC1=O)C1CCCO1 (centres undefined) | 9 | 4 | -10 | -2 | 0.9 | -1 | 3373
CCn1cc(C(=O)NCCCOC(C)C)c(=O)c2cc(S(=O)(=O)N3CCC(C)CC3)ccc21 | -4 | 6 | 10 | 13 | 2.9 | 6 | 5258
COC(=O)CCCC1=CC2=CC(=O)C(C)(OC(=O)c3cccs3)C(=O)C2=CN1CCc1c[nH]c2ccccc12 (centres undefined) | 0 | -3 | 3 | 9 | 4.8 | -3 | 2609
Cc1coc2c1C(=O)C(=O)c1c-2ccc2c(C)cccc12 | -20 | x | x | x | x | -7 | 3213
Cc1cc(C(=O)OCC(=O)Nc2ccccc2[N+](=O)[O-])c2ccccc2n1 | -12 | 33 | 1 | -6 | 7.5 | -4 | 2551
COc1cc(OC)nc(NC(=O)COC(=O)c2cccc(Cl)c2)n1 | -15 | 1 | -1 | 2 | 0.3 | -2 | 3376
Cc1cn2c(-c3ccncc3)nnc2s1 | -2 | 0 | x | x | 4.6 | 1 | 2312
Cc1ccc(CNC(=O)CCn2nc(-c3ccc(Cl)cc3)ccc2=O)cc1 | -13 | -2 | 5 | 8 | 4.0 | 5 | 18881*
CC(=O)C(=NNc1cccc(Cl)c1)Sc1cccc2cccnc12 | x | 3 | -3 | -1 | 4.8 | x | x
Cc1nc(SCC(=O)N(CC(C)C)C2CCS(=O)(=O)C2)c2c(C)c(C)sc2n1 (centres undefined) | -27 | -3 | 10 | 2 | 1.2 | x | 3798
NNC(=O)C1CCCn2c1nc1sc3c(c1c2=O)CCCC3 (centres undefined) | -17 | 1 | x | x | 1.0 | 6 | 2368
CC(c1ccco1)N(C(=O)c1ccccc1F)c1ccccn1 (centres undefined) | -24 | 5 | 7 | 6 | 1.9 | 1 | 2476
Cc1ccc(SCC(=O)c2c(C)[nH]c3ccccc23)cc1 | -11 | -7 | 9 | 1 | 6.0 | 9 | 2657
COc1ccccc1NC(=O)c1c(NC(=O)c2ccco2)sc2c1CCC2 | -8 | -5 | 3 | 0 | 19 | -11 | 10595
COc1cc(C)ccc1OCc1cc(C(=O)N2CCN(C)C[C@@H]2c2ccccc2)no1 | -44 | -4 | -1 | 12 | -0.3 | 4 | 5734
COC(=O)c1c(NC(=O)COC(=O)C2CCC2)sc(C)c1C | -31 | 3 | 11 | 2 | 4.9 | -9 | 5738
Cc1ccc(OCCn2cc(C=O)c3ccccc32)cc1 | -20 | 11 | 4 | 0 | -4.5 | -5 | 3231
Fc1ccc(CNCc2ccccc2C(F)(F)F)cc1 | -10 | 7 | 1 | 2 | 9.5 | 3 | 2343
CCCN[C@H]1CCc2nc(N)sc2C1 | -2 | x | x | x | x | -11&-3 | 4204
CCC(=O)Nc1ccccc1C(=O)N1CCCC1 | -17 | -4 | x | x | -1.0 | -7 | 4344
CCn1c(=O)n(CC)c2cc(N3CCCC3)c(NC(=O)c3c(F)cccc3F)cc21 | -19 | -9 | 1 | -1 | -1.9 | -1 | 4261
CC(C)CCOC(=O)C(C)Sc1n[nH]c(=O)[nH]c1=O (centres undefined) | 0 | 6 | 7 | 7 | 2.9 | 4 | x
COC(=O)c1ccc(NC(=O)C2CCN(C(=O)Nc3ccccc3)CC2)cc1 | -9 | 2 | 3 | -1 | 5.8 | x | 3509
CC(=O)Nc1ccc(Cl)cc1C(=O)O | -8 | -1 | x | x | 1.8 | -4 | 2870
Cc1ccc(OCCn2c3ccccc3n3nc(C)c(=O)nc23)cc1 | -10 | -2 | 14 | -5 | 4.4 | 4 | 2264
CSc1ccc(/C=C/C(=O)c2ccc(NC(C)=O)cc2)cc1 | -2 | x | x | x | x | 1 | 2388
CCOC(=O)N1CCN(C(=O)c2ccc(NC(C)=O)cc2)CC1 | -23 | 0 | 3 | -7 | -2.9 | 5 | 12835
Cc1cc(N/N=C/c2c[nH]c3ccccc23)c2ccccc2n1 | -15 | x | x | x | x | -11 | 3261
CCc1ccc(C2CC(=O)N(c3cccc(F)c3)C3=C2C(=O)OC3)cc1 (centres undefined) | -8 | 3 | 4 | 3 | 4.7 | -5 | 3254

One compound at a time, as listed above. Order of values: PrP 5UTR inh, ugtP null kill, Mtb hypoxia inh, Mtb hypoxia inh growth, RN4220 kill, BJeLR viability, Autofluor counter
CCOC(=O)N1CCN(C(=O)c2ccc(NC(C)=O)cc2)CC1 in the list: -23, 0, 3, -7, -2.9, 5, 12835
Cc1cc(N/N=C/c2c[nH]c3ccccc23)c2ccccc2n1 in the list: -15, x, x, x, x, -11, 3261

Remaining list, next part:
SMILES | PrP 5UTR inh | ugtP null kill | Mtb hypoxia inh | Mtb hypoxia inh growth | RN4220 kill | BJeLR viability | Autofluor counter
O=C(CN1CCN(C(=S)NC2CCCC2)CC1)Nc1ccc(Oc2ccccc2)cc1 | -23 | 21 | 20 | 13 | 1.8 | -1 | 2531
O=C(CN1C(=O)NC2(CCCCC2)C1=O)Nc1ccc2c(c1)OCCCO2 | -62 | 5 | 9 | 5 | 2.9 | x | x
CC(C)c1nc(N2CCOCC2)c(C#N)c2c1COC(C)(C)C2 | 7 | 1 | x | x | -0.3 | -7 | 4053
CC(=NNC(=O)c1cc2ccccc2cc1O)c1cc2ccccc2o1 | x | 92 | -1 | -4 | 66 | x | x
CC(CNC(=O)COC(=O)c1cccs1)c1ccccc1 (centres undefined) | -6 | 2 | -3 | 7 | -0.4 | x | 4103
c1ccc(N2CCN(Cc3cn4ccccc4n3)CC2)cc1 | -22 | 3 | 12 | 5 | 5.4 | 2 | 4461
CC(=O)Nc1ccc(/C(C)=N/NS(=O)(=O)c2ccc(C)cc2)cc1 | -11 | x | x | x | x | -8 | 3242
Cc1cc(C)cc(C(=O)Nn2cnnc2)c1 | -14 | 10 | 17 | 6 | 4.5 | -6 | 4021
Cc1ccc(C2=CSC3=NS(=O)(=O)CCN23)cc1 | -16 | 1 | 12 | 4 | 4.1 | -7 | 3470
COc1cc(C(=O)/C=C/c2cccnc2)c([N+](=O)[O-])cc1OC | -36 | x | x | x | x | 55* | 3629
CCc1ccccc1NC(=O)Cn1c(=O)n(-c2ccc(CC(=O)NCC3CCCO3)cc2)c(=O)c2ccccc21 (centres undefined) | -1 | -2 | 5 | 0 | 0.8 | -3 | 3320
CC(C)c1ccc(NC(=O)c2ccc(Br)o2)cc1 | -126 | -2 | -5 | 5 | -0.3 | 4 | 4446
CCn1c(SCC(=O)NCC2CCCO2)nc2c([nH]c3ccccc32)c1=O (centres undefined) | -5 | -1 | -14 | -16 | 4.8 | -1 | 5955
COc1ccccc1NS(=O)(=O)c1ccc2c(c1)OCCO2 | 6 | -6 | -5 | -2 | 2.2 | -2 | 5652
Cc1cc(SCC(=O)OCC(=O)N(CCC#N)c2ccccc2)nc2ccccc12 | -4 | 0 | 8 | 3 | 2.6 | -7 | 5222
